Compound activity from PubChem BioAssay.
PABP FP inh: blocks human PABP binding to poly(A) RNA. P11940. fluorescence polarization. inhibition, % at 35 µM. 1% of 290,000 active. AID 2014;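 active = 50% or more with normal probe brightness, or confirmed in later tests; inconclusive = above 50% with abnormal brightness, or retests that disagree; inactive = below 50% or failed in later tests; about a fifth of its hits are not listed in these tables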;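 note: calls also rest on retests at 20 µM and on dose response follow-up; controls were probe without protein and protein plus probe with vehicle; some compounds called inactive have numbers as strong as hits; many hits fall short of the cut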
Target sequence (P11940 whole entry, looked up): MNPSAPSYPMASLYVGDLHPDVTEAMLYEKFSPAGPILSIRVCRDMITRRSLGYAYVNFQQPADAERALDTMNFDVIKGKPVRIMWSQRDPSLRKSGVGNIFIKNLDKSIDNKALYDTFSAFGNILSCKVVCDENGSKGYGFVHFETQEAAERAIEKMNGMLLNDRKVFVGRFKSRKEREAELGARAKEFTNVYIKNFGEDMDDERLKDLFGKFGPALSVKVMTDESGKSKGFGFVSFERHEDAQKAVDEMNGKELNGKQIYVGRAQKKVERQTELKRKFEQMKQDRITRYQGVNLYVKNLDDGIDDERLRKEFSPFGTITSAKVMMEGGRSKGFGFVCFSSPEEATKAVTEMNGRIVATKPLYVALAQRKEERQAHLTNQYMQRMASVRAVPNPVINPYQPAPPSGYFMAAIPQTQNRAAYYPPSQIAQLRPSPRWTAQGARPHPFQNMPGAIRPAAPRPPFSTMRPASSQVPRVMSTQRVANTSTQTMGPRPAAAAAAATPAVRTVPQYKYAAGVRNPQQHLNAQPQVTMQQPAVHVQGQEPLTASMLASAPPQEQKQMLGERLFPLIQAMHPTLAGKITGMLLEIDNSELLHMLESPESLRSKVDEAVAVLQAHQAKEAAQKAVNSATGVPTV
CSC inhib: blocks cancer stem cells; cancer stem cell-like cells viability, luminescence; 1.1% of 300,000 active; inhibition, % at 7.5 µM;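 active = mean at 75% or more and at least half the replicates too; inconclusive = mean and replicates disagree; tested in HMLE shEcad cells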;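 note: 0% = median of negative and 100% = median of positive control wells; the first replicate is given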
HIV Env fusion: HIV envelope-mediated fusion inhibition. HeLa-JRFL Env/CEM21 cell fusion, luciferase. inhibition, % at 12.3 µM. 1.1% of 360,000 active. AID 651610;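 active = mean replicate inhibition score of at least 50 and every replicate individually at or above 50; inconclusive = only one of the two criteria met; inactive = mean below 50 and not all replicates reaching 50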;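 note: 0% = plate neutral controls and 100% = maraviroc near 300 nM; one replicate is shown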
UUG fidelity: alters start codon recognition fidelity in yeast. activity score, % at 18.7 µM. S. cerevisiae UUG-firefly luciferase reporter, luminescence/redox ratio. 0.13% of 350,000 active;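 active = replicate mean at a twofold rise or more, about +100% in these data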;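 note: firefly luciferase made from a UUG start codon reports start codon fidelity; reporter light over untreated wells divided by growth signal over untreated wells; some hits fall short of that in this replicate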
eIF4H inh: inhibitors of RNA binding by human eIF4H; eIF4H fluorescence polarization binding assay; 0.94% of 290,000 active; AID 2012; inhibition, % at 35 µM; Q15056;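 active = 50% or more with normal probe brightness, or confirmed in later tests; inconclusive = above 50% with abnormal brightness, or retests that disagree; inactive = below 50% or failed in later tests; about a fifth of its hits are not listed in these tables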;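 note: calls also rest on retests at 20 µM and on dose response follow-up; 0% = protein and probe with vehicle and 100% = probe without protein; strong numbers were not always called active; many hits fall short of the cut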
Rce1 inhib: yeast Ras-converting enzyme inhibition | 0.27% of 290,000 active | Q03530 | calls only | yeast membranes, quenched prenylated peptide cleavage fluorescence;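 active = fall in fluorescence gain of 50% or more versus controls, with final raw signal at or below 3038400; inconclusive = same 50% fall but final raw signal above 3038400; inactive = fall in fluorescence gain under 50%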;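 note: plate controls were neutral control wells for no effect and wells lacking membranes for full effect; tested at 10 µM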
MT1-MMP act inh: blocks activation of human MT1-MMP | HT1080 RFP-PRO-GFP cells, GFP/RFP ratio fluorescence, overnight; percent of plate control window, DMSO zero | AID 651647 | GFP/RFP ratio change, % at 20 µM | 0.061% of 360,000 active | P50281;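 active = GFP/RFP ratio change of at least 30% with cell ATP level not reduced by more than half and red fluorescence within 50% of control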; note: strong numbers were not always called active
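Material: RFP-PRO-GFP reporter HT1080 cells. Dosing: single-point 20 µM compound, 1% DMSO. Controls: DMSO and RFP-L50D-GFP cell wells. Timing: cells overnight before dosing, compound overnight, 37 °C, 5% CO2. Measure: GFP/RFP fluorescence ratio.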
MT1-MMP act inh RFP: second read-out of MT1-MMP act inh, no call of its own (marks repeat the call); RFP signal change, %; measured here: RFP expression control read;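 0 = vehicle wells; hits needed this value within 50% of zero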
Numbers without * were called inactive; i = inactive; ? = inconclusive; nt = no result given; & = joins results of further samples; [ ] = another dose, or the depositor's remark. Not all compounds are listed; count on the stated rates, not on these rows.

Screens in order – UUG fidelity	MT1-MMP act inh	Rce1 inhib	MT1-MMP act inh RFP	CSC inhib	PABP FP inh	HIV Env fusion	eIF4H inh
1: Clc1ccc(CNCCC2=CCCCC2)cc1
→ nt	6	i	0	-16	6	nt	-9
2: OC(CN1CCN(Cc2ccccc2)CC1)c1ccccc1 (stereo unspecified)
→ nt	-1	i	2	-2	-5	1	5
3: NNC(=O)c1nc(Cl)c(Cl)c(N)c1Cl
→ 15	-1	i	2	8	-1	-6	-3
4: Cc1nc(CNS(=O)(=O)c2ccc3c(c2)CCCC3)cs1
→ -7	-3	i	-12	-14	5	60*	-5
5: COC(=O)c1ccc(NC(=O)CCN2CCN(Cc3ccccc3)CC2)cc1
→ -11	5	nt	8	7	4	nt	-5
6: CCOC(=O)c1sc(NC(=O)CSc2nc3c(c(=O)n2-c2ccc(C)cc2)SCC3)c(C(=O)OCC)c1C
→ -21	-7	i	-3	5	13	nt	2
7: COc1cccc(CNn2cnnc2)c1O
→ nt	-6	nt	0	-1	-1	-3	-12
8: COc1ccc(C(=O)N(c2ccc(OC)cc2)S(=O)(=O)c2cccs2)cc1
→ nt	-2	i	-1	0	-6	6	-2
9: NS(=O)(=O)c1ccc(CCNC(=O)COC(=O)/C=C/c2ccc(OC(F)F)cc2)cc1
→ -1	2	nt	-3	nt	nt	-7	nt
10: c1ccc(-c2noc(-c3cccnc3)n2)nc1
→ -33	-5	i	1	7	-3	-36	2
11: Cc1ccccc1SCC(=O)OCC(=O)N1CC(=O)Nc2ccccc21
→ -17	-4	nt	7	-8	nt	-10	nt
12: COC(=O)c1ccc(C(=O)Nc2ccc3nc(-c4cccnc4)[nH]c3c2)cc1
→ -10	6	i	2	-3	-15	-243	-30
13: Cc1cccc(-c2nc(CSCC(=O)NCc3cccs3)c(C)o2)c1
→ -9	nt	i	nt	-18	-10	-18	2
14: N#Cc1ccc(/C=C/C(=O)c2ccccc2)cc1
→ nt	5	i	2	35	7	7	7
15: O=c1cc(CN2CCN(S(=O)(=O)/C=C/c3ccccc3)CC2)c2ccc(O)cc2o1
→ nt	-6	i	1	59	2	33	16
16: Cc1csc(=O)n1CC(=O)OCC(=O)NCc1ccc(F)cc1
→ -20	6	nt	5	-9	nt	-8	nt
17: CCO[C@@H]1OC(C(=O)N2CCOCC2)=C[C@H](c2ccc(Br)cc2)[C@H]1CCCO
→ -3&-6	2	i	1	-9	-4	1[16.7 µM]	-11
18: CCCNc1c(NC(C)=O)c(=O)oc2ccccc12
→ nt	-1	i	0	13	12	-7	-8
19: COc1ccc(OCCNC(=O)C2(C)CCN2Cc2ccc3ccccc3c2)cc1 (stereo unspecified)
→ 5	-1	nt	-8	nt	nt	4	nt
20: CC(C)(C)OC(=O)N1CCC[C@H]1C(=O)NCC1CCC(C(=O)O)CC1 (stereo partly specified)
→ 12	-6	i	-3	3	-8	-12	-7
21: Cc1ccc([C@H]2C[C@H](O)[C@@H](n3cc(COC(=O)c4ccccc4)nn3)CN2C(=O)C2CCCCC2)cc1
→ -4	3	nt	-2	nt	nt	-21	nt
22: NS(=O)(=O)c1ccc(CCNCC(=O)NC2CC2)cc1
→ -6	-4	i	3	-3	11	16	25
23: COc1ccc(C)cc1C(=O)CCC(=O)NC1CCCCC1
→ nt	nt	i	nt	-11	4	-2	-13
24: COCCN(C(=O)C(C)C)c1nnc(-c2ccc(C)cc2)s1
→ nt	2	nt	-3	-9	-2	0	-6
25: O=S(=O)(c1cccs1)n1nnc2ccccc21
→ 0	1	i	2	nt	-4	nt	1
26: CN(C)c1ccc(/C=C/C(=O)c2ccc3c(c2)OCCO3)cc1[N+](=O)[O-]
→ nt	10	i	5	49	-11	19	-8
27: CCOC(=O)c1c(C)c(C(=O)N2CCN(c3ccc(F)cc3)CC2)c(C)n1C
→ 3	-3	i	-3	-11	44	1	-8
28: CC(C)Cc1nc2sc3c(=O)[nH]cnc3c2c2c1CCC2
→ -9	8	i	2	-6	16	-37	9
29: COc1ccc(/C=C/C(=O)Nc2cc(C(F)(F)F)ccc2Cl)cc1OC
→ -12	-4	i	-10	19	-1	34	-2
30: CSc1nc(N2CCOCC2)cc(N2CCOCC2)n1
→ nt	-2	i	-2	3	9	-24	3
31: Cc1ccc(OCC(=O)NC(=S)Nc2ccccn2)c(Br)c1
→ -79	0	i	2	-7	-7	-2	-7
32: O=C(NCc1ccc2c(c1)OCO2)Nc1ccc2ccccc2c1
→ -8	1	i	-1	-6	-3	-28	-1
33: COc1ccc(CNC(=O)C2CC=CCC2C(=O)O)cc1OC (stereo unspecified)
→ -6	1	i	6	-8	3	nt	8
34: COc1cc(/C=C2\SC(N)=NC2=O)cc(Br)c1O
→ -15	-150	i	0	-4	?	2	?
35: Cc1ccc(-c2csc(C(C#N)=C3CCCC3)n2)cc1
→ -14	1	i	5	-11	-2	nt	-5
36: COc1cc2c(c3oc(=O)cc(CC(=O)O)c13)CCC(C)(C)O2
→ -7	0	i	2	-8	10	9	2
37: CN(Cc1ccc(F)cc1)C(=O)c1ccc(NC(=O)CC2SC(N3CCCC3)=NC2=O)cc1 (stereo unspecified)
→ -10	-2	i	0	-10	nt	4	nt
38: CC1=C(CC(=O)NCC(=O)NCC(=O)O)c2cc(F)ccc2/C1=C/c1ccc(S(C)=O)cc1 (stereo unspecified)
→ 3	-8	i	2	-6	2	11	-4
39: CC(C(=O)Nc1cccc(C#N)c1)N(C)CCOc1ccccc1 (stereo unspecified)
→ -17	-1	i	-4	9	-4	-10	-10
40: CCNC(=O)NC(=O)C(C)OC(=O)CCS(=O)(=O)c1ccc(C)cc1 (stereo unspecified)
→ nt	4	nt	8	-1	1	-12	-2
41: c1ccc(-c2csc3ncn4cnnc4c23)cc1
→ -19	-5	i	-9	-21	-11	-326	-3
42: CC(=O)N1c2ccc(S(=O)(=O)NCCc3ccccc3)cc2CC1C (stereo unspecified)
→ -2	-2	i	-17	-7	-4	-15	1
43: NC(=O)C1CCN(c2oc(-c3ccccc3)nc2S(=O)(=O)c2ccc(Br)cc2)CC1
→ -10	-3	nt	4	-4	-2	-5	-15
44: CCOC(=O)C1C(=O)NC(c2ccccc2)=NC1c1ccc(C(C)C)cc1 (stereo unspecified)
→ -16	-5	nt	-2	-5	-2	nt	2
45: Cc1ccc2nc(C(=O)N3CCc4c([nH]c5ccccc45)C3c3ccccn3)cn2c1 (stereo unspecified)
→ -10	-3	i	0	-24	-7	-3	6
46: Cc1cccc(C(=O)N/C(=C\c2ccco2)C(=O)N2CCCC2)c1
→ 7	-8	i	6	-11	9	3	32
47: CC(=O)Nc1cccc(-c2nnc3c4ccccc4c(C)nn23)c1
→ nt	nt	i	nt	3	-2	nt	-5
48: CCOC(=O)N1CCC(NC(=O)c2cccnc2SC)CC1
→ -5	0	nt	6	-4	6	nt	0
49: N#CCCn1cc(C(=O)Nc2ccc([N+](=O)[O-])cc2)c(-c2cccs2)n1
→ nt	2	nt	3	9	5	-38	-4
50: COc1ccc(COC(=O)NNC(=O)c2ccccc2Cl)cc1
→ -18	3	i	-1	-2	1	nt	-3
51: Cc1ccc(NC(=O)CSc2nnc(N)s2)c([N+](=O)[O-])c1
→ nt	-1	i	0	-5	1	1	-12
52: CCOC(=O)CNC(=O)CSc1nnnn1-c1cc(C)ccc1C
→ -23	8	i	9	-6	-17	nt	-11
53: Cc1nnc(SCC(=O)Nc2nccs2)o1
→ -24	1	i	1	-5	-4	1	-14
54: O=c1c2ccccc2cnn1Cc1n[nH]c(=S)n1-c1ccccc1F
→ -12	1	i	0	-8	-3	1	-4
55: CSc1ccc(S(=O)(=O)NCCCn2ccnc2)cc1
→ -12	6	i	2	-8	-1	16	-3
56: COC(=O)c1cc(Oc2ccc(C(=O)OC)cc2N)cc(C(=O)OC)c1
→ 6	2	i	5	0	-3	-39	-6
57: COc1cccc(CN2CCN(C(=S)NCc3ccc(Cl)cc3)CC2)c1
→ nt	8	i	-4	-22	-2	11	-1
58: CC1CCCCC1NC(=O)COC(=O)CCC(=O)c1cccs1 (stereo unspecified)
→ -5	0	nt	2	-11	nt	0	nt
59: COc1ccc(CN(C)C(=O)c2ccc(NS(=O)(=O)c3ccc(F)cc3)cc2)c(OC)c1
→ -6	-2	i	1	8	-1	2	-5
60: CCCCNc1cc(NC(C)=O)cc2cc(OC)c(OC)cc12
→ -25	-59	nt	2	5	-1	nt	-5

(further entries)
Screens in order – UUG fidelity	MT1-MMP act inh	Rce1 inhib	MT1-MMP act inh RFP	CSC inhib	PABP FP inh	HIV Env fusion	eIF4H inh
61: CCOC(=O)C(=CNc1ccc2c(c1)c1ccccc1n2CC)C(=O)OCC
→ nt	-2	i	1	-10	-8	6	0
62: CCN(CC)S(=O)(=O)c1ccc(NCc2ccccn2)nc1
→ -5	2	i	3	-14	2	-32	0
63: O=C1NC(=O)C(=C2CCCCCC2)S1
→ nt	3	i	10	-7	3	-57	3
64: Cc1cc(C(=O)COC(=O)c2ccc(CO)cc2)c(C)n1CC1COc2ccccc2O1 (stereo unspecified)
→ 15	2	i	1	-6	6	2	9
65: CCc1cc(CNC(=O)CC2C(=O)NCCN2CC2CCCCC2)on1 (stereo unspecified)
→ nt	-2	i	6	-13	15	19	12
66: O=C(CSc1ncccc1C(=O)O)NC1CCCCCCC1
→ 5	-5	i	-3	-1	-2	5	3
67: COc1cccc(N2C(=O)C3CCCN3C2c2ccc(F)cc2)c1 (stereo unspecified)
→ -11	-4	i	0	1	3	-5	-6
68: CCn1c(CC(=O)Nc2ccccc2)nnc1SCC(=O)Nc1nnc(C)s1
→ -15	0	i	1	-1	11	5	-1
69: COc1cccc(-n2nnnc2SCC(=O)NCc2ccco2)c1
→ -5	1	i	-2	-14	6	nt	6
70: CCOC(=O)C1CCCN(c2ncnc3c2cnn3-c2ccc(Cl)cc2)C1 (stereo unspecified)
→ -28	4	i	-4	8	6	-42	-9
71: CCN(CC(=O)Nc1cc(Cl)ccc1C)C(=O)COc1ccccc1F
→ nt	-1	i	0	44	26	12	-7
72: CCOC(=O)c1c(N2C(=O)CC(Sc3ccccc3C(=O)O)C2=O)sc(C)c1C (stereo unspecified)
→ nt	-2	i	1	-1	-11	-14	0
73: CN(C)c1ccc(-c2noc(C3CCN(S(=O)(=O)c4cccc(C(=O)O)c4)CC3)n2)cc1
→ -10	7	i	-2	nt	-14	nt	-10
74: Cc1ccc(S(=O)(=O)N2CCCCC2)cc1NC(=O)c1ccc(=O)[nH]c1
→ -13	4	nt	5	nt	nt	-11	nt
75: CCc1nc(C)cn1S(=O)(=O)c1cc(Br)ccc1OC
→ -12	3	i	3	-7	3	-39	2
76: NC(=O)CC(NC(=O)Cc1ccc(Br)cc1)c1ccc(NC2CC3CCC2C3)c([N+](=O)[O-])c1 (stereo unspecified)
→ -12	14	i	8	85*	-1	-12	0
77: Oc1c(Br)cc(Br)cc1C=NCc1ccc(F)cc1
→ nt	-1	i	2	nt	-4	15	8
78: O=C(OCc1ccc([N+](=O)[O-])cc1)C1CCN(S(=O)(=O)c2ccccc2)CC1
→ -8	-5	i	7	-6	-2	1	-6
79: O=C(Nc1sc2c(c1C(=O)NCCCO)CCCC2)c1ccccc1
→ 8	-1	i	0	-13	4	-64	-6
80: CC(=O)c1cccc(NC(=O)CCCN(C)S(=O)(=O)c2ccc(F)cc2)c1
→ -5	-4	i	-5	5	0	13	-10
81: CC(C)CNC(=O)/C=C/c1cccs1
→ nt	0	i	2	-6	-1	-25	-13
82: Cc1nn(CC(=O)NC2(C)CCS(=O)(=O)C2)c(C)c1S(=O)(=O)N(C)C (stereo unspecified)
→ -2	-4	nt	-1	-10	nt	nt	nt
